StopGo reporter = FMDV 2A StopGo reporter, luciferase signal; human cells with a luciferase reporter of 2A StopGo recoding; control for the full effect not named in the record; Potency, µM (highest dose often 57.9 µM), for inactives: at the top dose signal change, negative = less light; 410,000 compounds, 1.2% hits; AID 1159524; active = well fitted falling curve with a large enough effect; inconclusive = small, poorly fitted or top-dose-only effect; inactive = no such curve, though single readings can be large or run the other way; tested in HEK293T cells; also: % is scaled to controls: 0 for no effect and ±100 for the full control effect; nearly all actives have a fitted effect of over 45% in size; luciferase light after 4 h
NS1 function inh = blocks influenza NS1 protein function; S. cerevisiae slowed by influenza A NS1, growth recovery by OD600; Potency, µM (top dose mostly 46.1 µM), for inactives: top-dose activity, positive = more growth; 270,000 compounds, 0.4% hits; AID 2326; active means well fitted rising curve with a large enough effect; inconclusive means small, poorly fitted or top-dose-only effect; inactive means no such curve, though single readings can be large or run the other way; also: nearly all actives have a fitted effect of over 50% in size
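OD600 was taken as the measure of yeast growth restored by compound in an NS1-expressing S. cerevisiae strain. Cells had been washed out of glucose medium and diluted 1:100 into galactose -URA medium, pH 6.0.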
Cruzain inh Det = cruzain (T. cruzi) inhibition with detergent | purified cruzain, Z-FR-AMC fluorescence, 0.01% Triton | 200,000 compounds, 0.43% hits | Potency, µM, inactives show max response, negative = inhibition, most hits filed as inhibitors | AID 1478 | P25779;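 also: plate controls were neutral wells for no effect and buffer without enzyme for full effect; nearly all actives have a fitted effect of over 40% in size; top concentration of the series not given in the record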
Target sequence (P25779 123-467 limits assumed): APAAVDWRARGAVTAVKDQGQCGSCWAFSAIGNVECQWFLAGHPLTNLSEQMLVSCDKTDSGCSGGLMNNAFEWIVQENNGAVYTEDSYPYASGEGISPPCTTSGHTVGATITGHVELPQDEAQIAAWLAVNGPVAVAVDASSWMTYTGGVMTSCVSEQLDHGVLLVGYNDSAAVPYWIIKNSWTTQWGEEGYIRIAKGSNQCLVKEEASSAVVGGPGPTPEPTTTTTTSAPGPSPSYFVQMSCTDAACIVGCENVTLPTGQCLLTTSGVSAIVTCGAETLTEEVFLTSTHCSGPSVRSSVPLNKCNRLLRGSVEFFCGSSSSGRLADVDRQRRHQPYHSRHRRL
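15 min RT preincubation of 1.5 nM cruzain with compound, then 2 uM Z-FR-AMC added; kinetic AMC fluorescence, 60 s delta. Triton X-100 0.01%, pH 5.5.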
Cruzain inh noDet = blocks cruzain activity in detergent-free assay | P25779 | 200,000 compounds, 2.3% hits | Potency, µM, without a hit: max response, negative = inhibition, hits mostly inhibitors | purified cruzain, Z-FR-AMC fluorescence, no detergent | AID 1476;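 also: plate controls were enzyme without inhibitor for no effect and buffer without enzyme for full effect; nearly all actives have a fitted effect of over 40% in size; top concentration of the series not given in the record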
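Purified cruzain at 1.5 nM, pre-incubated 15 min with compound at room temperature in 100 mM sodium acetate pH 5.5, 5 mM DTT, 0.00005% Triton X-100. Reaction started with 2 uM Z-FR-AMC; AMC fluorescence increase over 60 s gives rate.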
MARV entry inh = inhibitors of Marburg virus binding or cell entry | Marburg virus pseudotyped entry inhibition, cell reporter; control for the full effect not named in the record; about a third of the inactives were read at about 46 µM | Potency, µM (doses to about 37.8 µM), for inactives: at the highest dose activity change, negative = inhibition, hits mostly inhibitors | 300,000 compounds, 1.8% hits | AID 540276; active = well fitted inhibition curve with a large enough effect; inconclusive = small, poorly fitted or top-dose-only effect, or effect the other way; inactive = flat fitted curve, though single readings scatter; tested in HEK293 cells; about a fifth of its hits are not listed in these tables; also: % is scaled to controls: 0 for no effect and ±100 for the full control effect; luciferase read-out
SARS PLpro yeast = blocks SARS-CoV papain-like protease in a yeast assay. S. cerevisiae expressing SARS-CoV PLpro, growth rescue; control for the full effect not named in the record. Potency, µM (series often up to 32.9 µM), for the others: top-dose activity, positive = growth rescue. 330,000 compounds, 0.19% hits. AID 485353; active means well fitted rising curve with a large enough effect; inconclusive means small, poorly fitted or top-dose-only effect; inactive means no such curve, though single readings can be large or run the other way; also: 0% is about no effect; nearly all actives have a fitted effect of over 55% in size; growth read by luminescence after 48 h
LASV entry inh = blocks Lassa virus binding to or entry into cells; Lassa virus pseudotype entry inhibition, cell reporter; control for the full effect not named in the record; Potency, µM (top dose mostly 37.9 µM), without a hit: top-dose activity change, negative = inhibition, hits mostly inhibitors; 300,000 compounds, 1.2% hits; AID 540256; active means well fitted inhibition curve with a large enough effect; inconclusive means small, poorly fitted or top-dose-only effect, or effect the other way; inactive means flat fitted curve, though single readings scatter; tested in HEK293 cells; also: % is scaled to controls: 0 for no effect and ±100 for the full control effect; nearly all actives have a fitted effect of over 50% in size; luciferase read-out
RE007 growth inh = less growth of the S. pombe RE007 Vpr strain; 360,000 compounds, 0.21% hits; S. pombe RE007 Vpr strain, BacTiter-Glo ATP luminescence, 24 h; control for the full effect not named in the record; Potency, µM (series often up to 92.2 µM), without a hit: at the highest dose activity change, negative = less growth; AID 651644; active = well fitted falling curve with a large enough effect; inconclusive = small, poorly fitted or top-dose-only effect; inactive = no such curve, though single readings can be large or run the other way;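 also: % is scaled to controls: 0 for no effect and ±100 for the full control effect; nearly all actives have a fitted effect of over 50% in size; the assay follows cell death caused by Vpr and the record does not say whether a fall means rescue or toxicity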
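Fission yeast RE007 carrying one integrated HIV-1 vpr copy, seeded at OD 0.01 in PMG+AL medium with 23 nL pinned compound. Grown 24 h at 30 degrees; viability read by BacTiter-Glo luminescence after 5 min.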
An asterisk follows results filed as active; ? = inconclusive; · = no result given; & = joins results of further samples; [ ] = another dose, or the depositor's remark. Unless noted, calls follow the shape of the dose curve; as a rule, active = well fitted curve in the direction sought with a large enough effect; inconclusive = small, poorly fitted or top-dose-only effect, or another doubt; inactive = no such curve, though single readings can be large; an effect the other way counts as inactive or inconclusive. Potency is read from the fitted curve at half-maximal effect. Random draw from the library; 4.7% or so of the library scored in one or more.

item | Structure | StopGo reporter | NS1 function inh | Cruzain inh Det | Cruzain inh noDet
1 | O=C(Cc1ccc(S(=O)(=O)N2CCCCC2)s1)Nc1ccc(F)c(F)c1 | -1% | -26% | -9.3% | 1%
2 | Cc1cc(C)cc(NC(=O)c2cccc(C(=O)Nc3cc(C)cc(C)c3)n2)c1 | -16% | 17% | · | ·
3 | CCOP(=O)(OCC)C(Nc1ccccc1)c1ccccc1C(F)(F)F (stereo not drawn) | -16% | -2% | · | ·
4 | Cc1cc(Br)ccc1NC(=O)c1c(C)oc2ncnc(N3CCCCC3)c12 | -26% | · | -4.5% | 5%
5 | CCOc1ccc(OCC)c(NC(=O)CCc2nc3cccnc3n2Cc2cccs2)c1 | -23% | · | -7.6% | ?
6 | COCCNC(=O)C1CCCN(S(=O)(=O)c2c(C)noc2/C=C/c2cccs2)C1 (stereo not drawn) | -4% | -6% | · | ·
7 | CC1CCC(NC(=O)CN2C(=O)COc3ccc(S(=O)(=O)N4CCCC4)cc32)CC1 (stereo not drawn) | · | -1% | -1.4% | 4%
8 | COc1ccc(OC)c(CN2CCCC(CO)C2)c1 (stereo not drawn) | · | 5% | 6.5% | -15%
9 | CN(C(=O)c1cnccn1)c1nnc(-c2cnccn2)s1 | 37%[activator] | 4% | 0.4% | -5%
10 | CC1CN(C(=O)CCC(=O)NCc2ccc(F)cc2)c2ccccc2S1 (stereo not drawn) | -24% | -7% | · | ·
11 | CCc1cccc2c(SCC(=O)NCC3CCCO3)nc(-c3ccc(F)cc3)nc12 (stereo not drawn) | · | 9% | 0.8% | -4%
12 | COc1ccc(NC(=O)CCSc2ccc(C)cc2)cc1S(=O)(=O)Nc1ccccc1Cl | -7% | ? | -6.0% | 4%

item | MARV entry inh | SARS PLpro yeast | LASV entry inh | RE007 growth inh
1 | ? | -17% | ? | 19%
2 | 4% | -2% | ? | -11%
3 | · | 0% | · | 14%
4 | · | · | -1%[46.1 µM] | ·
5 | ? | · | 5%[46.1 µM] | ·
6 | · | 0% | · | -2%
7 | 4% | -2% | · | ·
8 | 21% | 4% | 0% | 7%
9 | 9% | 8% | -2% | 20%
10 | · | 4% | · | -11%
11 | ? | 2% | 10% | 2%
12 | ? | 5% | 13µM* | -15%

Further records follow:
item | Structure | StopGo reporter | NS1 function inh | Cruzain inh Det | Cruzain inh noDet
13 | COc1ccc(OC)c(Nc2ncnc3sc(-c4ccccc4)cc23)c1 | ? | -4% | -7.3% | -6%
14 | COc1cccc(/C=N/NC(=O)c2cnccn2)c1OC | 41%[activator] | 4% | · | ·
15 | O=c1c2c3c(sc2n2c(=S)[nH]nc2n1-c1ccccc1)CCC3 | -6% | 4% | · | ·
16 | CSc1nc(C)cc(-n2cc(F)c(=O)[nH]c2=O)n1 | -18% | -10% | 2.2% | 4%
17 | CCc1ccc(NC(=O)CSc2nc(-c3ccccc3)c(C#N)c(=O)[nH]2)cc1 | -20% | · | -12% | ?
18 | COc1ccc(Nc2nc(NN)nc(C)c2[N+](=O)[O-])cc1 | -28% | · | · | ·
19 | O=C1NC[C@@H](Cc2cccc3ccccc23)N(CCc2cc(C(F)(F)F)cc(C(F)(F)F)c2)C1=O | -11% | -37% | · | ·
20 | O=C(NCC(=O)N1CCN(C(=O)c2ccco2)CC1)c1ccccc1 | 23% | 11% | · | ·
21 | CC(NC(=O)NC(=O)c1cccc(Cl)c1)c1ccccc1 (stereo not drawn) | ? | 9% | · | ·
22 | O=C(Nc1ccccc1C(=O)N1CCCCC1)c1ccc(Cl)cc1Cl | 18% | ? | · | ·
23 | COc1ccc(C(=O)NNC(=O)C(=O)/C=C(\O)c2ccc(C)cc2)cc1 | -11% | 6% | · | ·
24 | O=C(O)c1ccccc1-c1ccccc1C(=O)Nc1cccc(O)c1 | -10% | 6% | · | ·

item | MARV entry inh | SARS PLpro yeast | LASV entry inh | RE007 growth inh
13 | 0% | -17% | -19% | 13%
14 | -6%[46.1 µM] | 0% | 5% | 11%
15 | -9%[14.2 µM] | -4% | 11% | 2%
16 | 2% | 8% | 11% | -1%
17 | 4%[46.1 µM] | · | -2%[46.1 µM] | ·
18 | 1%[46.1 µM] | 1% | -7% | 2%
19 | · | -1% | · | 8%
20 | 14% | 15% | -20% | -2%
21 | · | 8% | · | -6%
22 | -4%[46.1 µM] | 0% | · | ?
23 | -2%[46.1 µM] | 4% | -3%[46.1 µM] | -9%
24 | -12%[14.2 µM] | -1% | -2% | 12%

Later entries.
item | Structure | StopGo reporter | NS1 function inh | Cruzain inh Det | Cruzain inh noDet
25 | CCCCCN(C(=O)CN(C)Cc1ccc(OC)cc1OC)c1c(N)n(CCCC)c(=O)[nH]c1=O | 0% | 0% | 9.3% | -7%
26 | COc1ccc2c(=O)c(-c3nc(C)cs3)coc2c1 | -35% | -30% | 7.4% | 5%
27 | Cc1nn(C)c(Cl)c1S(=O)(=O)N1CCC(CO)(CCc2ccccc2)CC1 | 0% | -6% | · | ·
28 | O=C(N/N=C\c1ccc(F)cc1)c1csnn1 | 37%[activator] | -9% | -4.4% | -5%
29 | COc1ccc(N2CCN(c3oc(COc4ccccc4)nc3C#N)CC2)cc1 | -4% | 6% | -5.8% | 2%
30 | C=CCn1c(=S)[nH]c2cc(C(=O)Nc3ccc(F)cc3)ccc2c1=O | -23% | 5% | · | ·
31 | Nc1nsc2ccccc12 | · | -64% | -2.1% | -28%
32 | Cc1ccc(C(=O)N[C@H](C(=O)OCC(=O)c2ccc[nH]2)C(C)C)cc1 | -17% | 12% | -8.3% | ?
33 | COc1ccccc1Nc1nc(NCC2CCCO2)c2ccccc2n1 (stereo not drawn) | ? | -5% | · | ·
34 | COC(=O)CSc1cc([N+](=O)[O-])cc2c1c(C1OCCO1)nn2-c1ccccc1 | -4% | -4% | -4.6% | 6%
35 | Fc1ccc(Nc2ncnc3sc4c(c23)CCC4)cc1 | -24% | -20% | -11% | 2%
36 | Cc1ccc2c(CC(=O)Nc3ccc(S(=O)(=O)N4CCCCC4)cc3)coc2c1C | 8% | · | -8.6% | 25µM*

item | MARV entry inh | SARS PLpro yeast | LASV entry inh | RE007 growth inh
25 | -2% | -5% | 3% | -14%
26 | -25%&-25%[46.1 µM] | -12% | ? | -20%
27 | -16%[46.1 µM] | 0% | -21% | 9%
28 | -4% | 4% | ? | 3%
29 | -9% | 0% | ? | -2%
30 | ? | -3% | ? | 1%
31 | ? | -32% | ? | ?
32 | -4% | -3% | ? | 2%
33 | ? | -3% | ? | 3%
34 | 7% | 1% | ? | 5%
35 | 2% | -4% | · | -21%
36 | ? | · | -27%[46.1 µM] | ·

(more compounds)
item | Structure | StopGo reporter | NS1 function inh | Cruzain inh Det | Cruzain inh noDet
37 | Cc1ncoc1C(=O)N1CCCC(C(=O)c2ccc(-c3ccccc3)cc2)C1 (stereo not drawn) | -19% | -43% | · | ·
38 | Cc1ccc(S(=O)(=O)N2CCCCC2)cc1NC(=O)Cn1ccc(C(F)(F)F)n1 | -17% | 4% | · | ·
39 | CC(=O)c1ccc(OCC(O)CNCc2ccc3c(c2)OCO3)cc1 (stereo not drawn) | -12% | -3% | · | ·
40 | Cc1cc(C)nc(SCc2nc3ccccc3n2C)n1 | 30% | -16% | 3.2% | -1%
41 | COc1ccc(Cc2noc(CN3CCN(C4CCc5ccccc5C4)CC3)n2)cc1OC (stereo not drawn) | 20µM* | -3% | · | ·
42 | CC(=O)c1c(OC(=O)c2ccc(C)cc2)c2ccccc2n1C | · | -11% | -2.5% | -10%
43 | Cc1cc(NC(=O)NC(=O)c2ccccc2NC(=O)C(C)N)ccc1Oc1ncc(Br)cn1 (stereo not drawn) | 15% | · | · | ·
44 | CCC1CCc2sc(C(=O)N3CCCN(C)CC3)cc2C1 (stereo not drawn) | 4% | -2% | · | ·
45 | CC(=O)Nc1ccc(NC(=O)C(C)OC(=O)c2ccc(-n3cnnn3)cc2)cc1 (stereo not drawn) | -15% | · | · | ·
46 | Cc1ccc(CN2CCN(CCCc3ccccc3)CC2CCO)cc1 (stereo not drawn) | -22% | 2% | · | ·
47 | CCN1CCN(CCNC(=O)c2cc(Cl)c(NC(=O)C3=C(C)OCCS3)cc2OC)CC1 | -17% | -17% | · | ·
48 | C/C(=N\NS(C)(=O)=O)c1ccc(C)cc1 | 3% | 3% | 7.0% | 3%
49 | CC(NC(=O)CCC(=O)c1ccccc1)c1ccc(F)cc1 (stereo not drawn) | -10% | · | · | ·

item | MARV entry inh | SARS PLpro yeast | LASV entry inh | RE007 growth inh
37 | · | -6% | · | 8%
38 | -11% | 2% | -22% | ?
39 | -7%[46.1 µM] | -2% | 7%[46.1 µM] | -13%
40 | -10%[46.1 µM] | 0% | 1% | -11%
41 | ? | -1% | -27% | -1%
42 | 6% | -37% | -6% | -2%
43 | ? | · | ? | 11%
44 | ? | ? | -2%[46.1 µM] | -6%
45 | -16% | 10% | 12% | 3%
46 | · | 1% | · | 0%
47 | · | 5% | · | -22%
48 | 5% | 4% | -5% | -5%
49 | -15%[46.1 µM] | -1% | 12% | 0%

Screening data deposited in PubChem BioAssay by National Center for Advancing Translational Sciences (NCATS).
